HPGD inh – inhibitors of human 15-hydroxyprostaglandin dehydrogenase (HPGD); P15428; purified HPGD, NADH fluorescence kinetic, PGE2 substrate; Potency, µM, inactives show at the highest dose activity change, negative = inhibition, most hits filed as inhibitors; actives 4.3% (n = 150,000); AID 894; active = well fitted inhibition curve with a large enough effect (not every such curve was filed as active); inconclusive = small, poorly fitted or top-dose-only effect, or another doubt; inactive = no such curve, though single readings can be large or run the other way;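 further: top concentration of the series not given in the record; plate controls included wells without enzyme; inactives centre near -10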
Target sequence (P15428 whole entry, looked up): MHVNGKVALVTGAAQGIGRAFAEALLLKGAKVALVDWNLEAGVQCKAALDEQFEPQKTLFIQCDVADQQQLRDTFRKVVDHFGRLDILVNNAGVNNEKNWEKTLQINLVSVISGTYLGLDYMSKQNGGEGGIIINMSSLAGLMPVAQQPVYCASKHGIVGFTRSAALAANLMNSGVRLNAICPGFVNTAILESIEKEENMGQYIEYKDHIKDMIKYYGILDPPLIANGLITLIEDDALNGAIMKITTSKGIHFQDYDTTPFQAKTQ
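20 nM HPGD preincubated 15 min at room temperature with compound in 50 mM Tris-HCl pH 8, 0.01% Tween 20. Started with 1 mM NAD+ and 30 uM prostaglandin E2; NADH fluorescence (360/450 nm) read 5 times over 30-s intervals, last minus first.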
Numbers without * were called inactive; u = inconclusive. On the % scale 0 is the no-effect control and ±100 the full control effect; potency means the concentration at half of the fitted maximal effect. Some of the compounds tested (hit frequency here may not be typical).

HPGD inh	smiles
u	O=C(c1ccc2c(=O)n(-c3ccccc3)c(=O)[nH]c2c1)N1CCCCC1
-4%	O=C(Nc1nc(=O)n(C(=O)C2CC2)s1)c1ccccc1
-12%	O=C(COC(=O)C12CC3CC(CC(C3)C1)C2)NCCc1ccccc1
-21%	Cc1cc(C)cc(NC(=O)CSc2nc3c(oc4ccccc43)c(=O)n2-c2ccccc2)c1
-6%	Cn1c(=O)c2c(ncn2CC(=O)Nc2ccccc2N2CCOCC2)n(C)c1=O
-22%	CCCCc1cc(=O)oc2cc(OS(C)(=O)=O)ccc12
u	CCOc1cccc(C(=O)Nc2nnc(-c3ccco3)s2)c1
-7%	COC(=O)[C@@]1(C)C=C[C@@H](Cc2ccccc2)N1C(C)=O
-17%	COC(=O)Nc1nc(-c2ccccc2)c(C(=O)c2ccccc2)s1
-3%	Cc1nn(-c2ccccc2)c(NC(=O)c2cccs2)c(-c2ccccc2)c1=O
-22%	Cc1cccc2cc(/C=N/NC(=O)CN3CCOCC3)c(Cl)nc12
-19%	CCc1nnc(NC(=O)CSc2ncnc3c2oc2ccccc23)s1
u	N#Cc1c(-c2ccc3c(c2)OCO3)ccn2nc(-c3cccc(C(F)(F)F)c3)nc12
-1%	O=C(COC(=O)Cn1cnc2ccccc21)Nc1cccc2c1C(=O)c1ccccc1C2=O
-4%	Cc1ccc(S(=O)(=O)NCCCNC(=O)N2CCOCC2)cc1
-15%	CCn1c(SCc2cccc(C)c2)nnc1-c1ccccc1
-15%	CCOc1ncccc1C(=O)OCC(=O)c1cc(C)n(Cc2ccco2)c1C
-10%	Cc1ccnc(NC(=O)C2CCC(CNc3c(N4CCCC4)c(=O)c3=O)CC2)c1 (stereo not given)
u	COc1ccc(CNC(=O)c2ccc(NC(=O)CC3SC(N4CCCCC4)=NC3=O)cc2)cc1 (stereo not given)
1%	COc1cc(S(=O)(=O)NC(C)C)ccc1Cl
-11%	COc1ccc(C2CC(=O)c3c(O)cc(O[C@H]4OC(COC5OC(C)C(O)C(O)[C@@H]5O)C(O)C(O)C4O)cc3O2)cc1O (stereo not given in full)
-3%	CCOc1ccccc1N(CC(=O)Nc1cccnc1)S(C)(=O)=O
16µM*	CC1CCN(c2c(NCC3CCC(C(=O)NCc4ccccc4Cl)CC3)c(=O)c2=O)CC1 (stereo not given)
-24%	CC(N)(Cc1ccc(O)cc1)C(=O)O (stereo not given)
-3%	O=C(CSc1nc2c(cnn2-c2ccccc2)c(=O)[nH]1)c1ccc(Cl)cc1
-17%	Cc1cc(N2CCN(C(=O)c3ccco3)CC2)n2nc(C)nc2n1
-9%	O=C1CC(Cc2ccccc2)C(=O)N1CCc1ccc2c(c1)OCO2 (stereo not given)
-4%	C[C@H](CCC(=O)O)[C@H]1CC[C@H]2[C@@H]3CC[C@@H]4C[C@H](O)CC[C@]4(C)[C@H]3C[C@H](O)[C@]12C
-5%	CC1(OC(=O)CCc2ccccc2)C(=O)C=C2C=C(c3ccc(C#N)cc3)N(c3ccccc3)C=C2C1=O (stereo not given)
-21%	O=C(Cn1nnc(-c2cccs2)n1)OC1CCCCC1
-6%	O=C(O)CCCCn1ccc(=O)[nH]c1=O
-5%	NNC(=O)CN1C(c2ccc(Cl)cc2)=Nc2ccc(Br)cc2C1c1ccccc1 (stereo not given)
-6%	Cc1ccc(NCc2nnc(SCC(=O)NCCc3ccccc3)n2C)cc1
-7%	CCn1cc(C(=O)OCC(=O)Nc2cccc(S(=O)(=O)N3CCOCC3)c2)c(=O)c2ccc(C)nc21
-6%	N=c1ccn(Cc2ccccc2Cl)cc1
-22%	CS(=O)c1ccccc1COC(=O)Nc1ccc(Cl)cc1 (stereo not given)
-6%	CCC(=O)Nc1cccc(NC(=O)c2cccnc2)c1
-8%	Cn1c(CNC(=O)Nc2cccc(Cl)c2)nnc1SCc1ccccc1
-1%	COC(=O)N1N=C(c2ccccc2)CC1(O)C(F)(F)F (stereo not given)
-5%	CC(=O)Nc1ccc(Sc2ncccc2C(=O)Nc2ccc(F)cc2)cn1
-3%	CCc1nnc(NC(=O)CN2CCN(C3CCCCC3)CC2)s1
u	CCCCc1nc(NCC2CCCO2)c(C#N)c2c1COC(C)(C)C2 (stereo not given)
u	COc1cccc(C(=O)Nc2c(C(N)=O)oc3ccccc23)c1
-23%	NC(=O)CN1C(=O)C(O)(CC(=O)/C=C\C=C\c2ccccc2)c2ccccc21 (stereo not given)
-3%	Cc1ccc(-c2noc(CCC(=O)Nc3ccc4c(c3)OCO4)n2)cc1
-8%	O=C(NNC(=O)c1ccc(SCC2CCCO2)c([N+](=O)[O-])c1)c1ccc(F)cc1 (stereo not given)
-2%	CN(C)c1ccc(/C=C/c2ccc3ccccc3[n+]2C)cc1
2%	O=C(CN1C(=O)c2ccccc2S1(=O)=O)Nc1ccc(S(=O)(=O)N2CCCCC2)cc1
0%	Cc1cc(NS(=O)(=O)c2ccc(NC(=O)Nc3ccccc3)cc2)no1
u	COc1cc2c(cc1OC)-c1cc(N3CCCCCC3)nc(=O)n1CC2
u	O=C(NC12CC3CC(CC(C3)C1)C2)c1cc2nc(-c3ccco3)cc(C(F)(F)F)n2n1
u	COc1ccc(-c2cc(C(F)(F)F)n3nc(C(=O)N4CCCC4)cc3n2)cc1
-18%	Cc1csc(NC(=O)C2CCN(S(=O)(=O)c3ccc4c(c3)oc(=O)n4C)CC2)n1
2.8µM*	O=C(O)c1ccc(CSc2n[nH]c(-c3ccco3)n2)cc1
-14%	Cc1ccc(N=Cc2nc(/C=C/c3cccc([N+](=O)[O-])c3)oc2O)cc1
-23%	Clc1ccc(CSc2nnc(-c3ccncc3)o2)c(Cl)c1

The results go on.
HPGD inh	smiles
-20%	COc1ccc(C2C(C#N)=C(N)Oc3n[nH]c(C)c32)cc1Cn1nc(C)c([N+](=O)[O-])c1C (stereo not given)
-7%	COc1cccc(Nc2ncnc3ccccc23)c1
u	O=C(c1cc(-c2ccc3c(c2)OCO3)on1)N1CCN(c2ccccc2)CC1
-11%	O=C1[C@@H]2[C@@H]3C[C@@H]([C@H]4ON=C(c5ccc(Cl)cc5)[C@@H]34)[C@@H]2C(=O)N1C1CCCCC1
-27%	Cc1cnc2ncc3sccc3c2c1
-4%	O=C(NNS(=O)(=O)c1ccc(Cl)cc1)c1cc(-c2ccccc2)nc2ccccc12
-10%	CCC1CCCCN1C(=O)c1nn2cccnc2c1Cl (stereo not given)
-22%	Cc1cc(=O)[nH]c2c1c(C)nn2C1CCOC(C)(C)C1 (stereo not given)
-16%	Cc1cc(C(=O)N/N=C/c2cc([N+](=O)[O-])ccc2O)c2ccccc2n1
35µM*	Cc1c(Cl)c(C(=O)NC2CCCC2)nn1C
-2%	COc1cc(C(c2nnnn2C(C)(C)C)N2CCN(C)CC2)cc(OC)c1OC (stereo not given)
5%	Nn1c(SCC(=O)NCCC2=CCCCC2)nnc1C1CCCCC1
u	CCOc1ccc(-c2noc(-c3ccncc3)n2)cc1OCC
-15%	CC(C)(C)c1ccc(C(=O)Nc2cccc([N+](=O)[O-])c2)cc1
-8%	CC(C)C(=O)N1CCN(c2ccc(NC(=O)c3cccs3)cc2)CC1
-6%	Cc1cccc(-n2ncc3c(N4CCCC4)ncnc32)c1

A second format for 2 compounds above.
CC(C)C(=O)N1CCN(c2ccc(NC(=O)c3cccs3)cc2)CC1
  HPGD inh: -8%

Cc1cccc(-n2ncc3c(N4CCCC4)ncnc32)c1
  HPGD inh: -6%

New compounds follow
HPGD inh	smiles
0%	C=CCn1c(O)c(N=NC(=O)CNC(=O)c2cccs2)c2ccccc21
16µM*	Cc1sc2nc(SCC(=O)N3CCCCC3)[nH]c(=O)c2c1C
-2%	O=C(NC1CCCC1)c1ccc(S(=O)(=O)N2CCCC2)cc1
-1%	O=C(CSC1CCCCC1)N1CCN(c2ccccc2)CC1
-8%	O=C(NC1CCCC1)C(c1ccc(Cl)cc1)N1CCOCC1 (stereo not given)
-8%	CC(C)(CC(=O)Nc1ccccc1)C(=O)O
28µM*	Cc1nn(CCC(N)=S)c2nc(-c3cccs3)cc(C(F)(F)F)c12
-11%	O=C(CCN1CCN(CCO)CC1)Nc1ccc(F)c(F)c1
-12%	C/C(N)=C(/C#N)C(=O)COC(=O)CC1CCCC1
u	COc1cc(/C=C(\C#N)c2ccccn2)ccc1OCC(=O)Nc1cccc(C(F)(F)F)c1
-14%	O=C(O)COc1ccc(Oc2ccccc2)cc1
-15%	COc1ccc(Br)cc1C(=O)Nc1cc(C)cc(C)c1
-18%	CCOC(=O)N1CCC(NC(=O)c2ccc3c(c2)ncn3C2CCCC2)CC1
-14%	Cc1ccccc1/C=C1\CCCc2ccccc2C1=O
-24%	Cc1ccc(/C=C/C(=O)Nc2sc3c(c2C#N)CCCC3)o1
-14%	Cc1cc(C)c2[nH]c(=O)c(CN(CC3CCCO3)C(=S)Nc3ccccc3)cc2c1 (stereo not given)
-12%	CC(C)COc1ccc(C(=O)Nc2ccc(SC(F)F)cc2)cc1
-7%	Cc1ccc(OCCOC(=O)Nc2ccccc2)cc1
-4%	C/C(=N/NC(=O)c1cccs1)c1ccc(N2CCOCC2)cc1
-10%	Cc1cc(C)n2nc(N)c(N=Nc3cccc(Cl)c3)c2n1
-6%	Cc1cccc(C)c1NC(=O)C(c1ccccc1)N1CC(=O)Nc2ccccc21 (stereo not given)
u	Cc1nn(-c2ccccc2)c2sc(C(=O)OCc3nnc(-c4ccccc4)o3)cc12
-1%	Cc1cccc(N2CC(C(=O)Nc3ccc4c(c3)OCO4)CC2=O)c1C (stereo not given)
-6%	CCS(=O)(=O)NCc1cn2ccsc2n1

Ordered by SMILES length (ascending): three of the compounds above
HPGD inh	smiles
-6%	CCS(=O)(=O)NCc1cn2ccsc2n1
-10%	Cc1cc(C)n2nc(N)c(N=Nc3cccc(Cl)c3)c2n1
u	Cc1nn(-c2ccccc2)c2sc(C(=O)OCc3nnc(-c4ccccc4)o3)cc12

New compounds follow:
HPGD inh	smiles
-3%	C=C(C)Cn1c(SCC(=O)O)nnc1-c1ccccc1
-9%	CCN(CC)Cc1ccc(Nc2ccnc3cc(Cl)ccc23)cc1O
u	COc1ccccc1C1=Nn2c(nnc2C2CCCCC2)SC1
-28%	CCOc1cc(CNCCSc2nnnn2C)cc(Br)c1OCc1ccccc1F
-7%	CCOC(=O)CN(C(=O)Cn1nnc2ccccc21)C(C(=O)NCCOC)c1ccccc1 (stereo not given)
-23%	COc1c2ccc(C(=O)NCc3cc(C(F)(F)F)cc(C(F)(F)F)c3)cc2nn1C
-2%	COC(=O)c1[nH]c2ccc(C)cc2c1NC(=O)c1ccccc1[N+](=O)[O-]
-6%	CC(C)=N[C@H](C(=O)O)C(C)(C)S

5 entries drawn at random from the list so far, as already listed:
HPGD inh	smiles
-23%	COc1c2ccc(C(=O)NCc3cc(C(F)(F)F)cc(C(F)(F)F)c3)cc2nn1C
-3%	C=C(C)Cn1c(SCC(=O)O)nnc1-c1ccccc1
u	COc1ccccc1C1=Nn2c(nnc2C2CCCCC2)SC1
-7%	CCOC(=O)CN(C(=O)Cn1nnc2ccccc21)C(C(=O)NCCOC)c1ccccc1 (stereo not given)
-28%	CCOc1cc(CNCCSc2nnnn2C)cc(Br)c1OCc1ccccc1F

Later entries
HPGD inh	smiles
-1%	COCCn1nnnc1C(C(C)C)N1CCC(Cc2ccccc2)CC1 (stereo not given)
-16%	CC1=NN(c2ccc(C)cc2)C(=O)/C1=C\C=C\c1ccccc1
-5%	CCc1cccc(NC(=O)C2CCCN(S(=O)(=O)c3c(C)[nH]c(=O)[nH]c3=O)C2)c1 (stereo not given)
-24%	O/N=C/c1cc(Cl)ccc1OCc1ccccc1Cl
-24%	Cc1ccccc1NC(=S)NCc1cccn1C
-11%	c1cnc2ccc(C(c3nnnn3C3CCCC3)N3CCN(c4nc5ccccc5s4)CC3)cc2c1 (stereo not given)
-20%	CC1(C)Cc2cccc(OCC(=O)Nc3cc(C(F)(F)F)ccc3N3CCOCC3)c2O1
-20%	O=C(Nc1cccc(Cl)c1)c1ccc2c(=O)n3c(nc2c1)CCCCC3
u	NC(=O)c1c(C(F)(F)F)cc(-c2ccccc2)nc1NCCO
-5%	OC12CCCCC1C(c1ccc3c(c1)OCO3)N(Cc1cccc(F)c1)CC2 (stereo not given)
-27%	Cc1ccc(S(=O)(=O)CCSc2nc(C)cc(C(F)(F)F)c2C#N)cc1
-11%	CN1CCN(C(=S)Nc2ccc(Cl)c(Cl)c2)CC1
-8%	COCCN1Cc2cccc(C(=O)NCc3cccnc3)c2C1=O
-4%	CS(=O)(=O)N1CCC2(CCN(C(=O)Nc3cccc(C#N)c3)CC2)CC1
-3%	CCCc1[nH]nc2c1C(c1ccc(OC(=O)c3ccco3)cc1)C(C#N)=C(N)O2 (stereo not given)
-15%	COc1cc2c(cc1OC)C(C(=O)N1CCCC1)C(c1ccccc1F)N(C)C2=O (stereo not given)
-10%	COc1ccccc1N1CCN(S(=O)(=O)c2ccc3c4c(cccc24)C(=O)N3C)CC1
-7%	C=CCOc1c(CNn2nnnc2N)cccc1OC
-8%	COc1ccc(OC)c(NC(=O)COC(=O)Cc2ccc(-c3ccccc3)cc2)c1
-21%	NC(=O)c1ccsc1NC(=O)c1cc(=O)c2ccccc2o1
-9%	N/C(Cc1ccc([N+](=O)[O-])cc1)=N\OC(=O)COc1ccccc1Cl
-3%	COc1ccc(-n2nnc3c(=O)n(Cc4ccccc4C)cnc32)cc1
-25%	CCOc1ccc(OCC(=O)Nc2ccc(OC)cc2)cc1
2%	Cc1ccccc1-n1c(=O)c2ccccc2n2cnnc12
